RE007 growth inh = qHTS Assay for Inhibitors of the HIV-1 protein Vpr; AID 651644, 2012; Potency, µM (titrated, usually from 92.2 µM), without a hit: top-dose activity change, negative = less growth; S. pombe RE007 Vpr strain, BacTiter-Glo ATP luminescence, 24 h; control for the full effect not named in the record; 0.21% of 360,000 active; active = well fitted falling curve with a large enough effect; inconclusive = small, poorly fitted or top-dose-only effect; inactive = no such curve, though single readings can be large or run the other way;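 further: on the % scale 0 is the no-effect control and ±100 the full control effect; nearly all actives have a fitted effect of over 50% in size; the assay follows cell death caused by Vpr and the record does not say whether a fall means rescue or toxicity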
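Fission yeast strain RE007, carrying one chromosomally integrated HIV-1 vpr copy, was seeded at OD 0.01 in PMG+AL medium with 23 nL pinned compound. After 24 h at 30 °C and 99% humidity, viability was read by BacTiter-Glo luminescence.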
NS1 inh = qHTS Assay for Inhibitors of Influenza NS1 Protein Function; S. cerevisiae slowed by influenza A NS1, growth recovery by OD600; AID 2326, 2010; Potency, µM (series often up to 46.1 µM), without a hit: top-dose activity, positive = more growth; 0.4% of 270,000 active; further: actives are rising curves; nearly all actives have a fitted effect of over 50% in size
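S. cerevisiae expressing influenza A NS1, grown in glucose, washed, then diluted 1:100 into pH 6.0 -URA galactose medium with 23 nl compound. Growth recovery read as OD600; NS1-free strain serves as control.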
Cruzain noTriton = qHTS Assay for Promiscuous and Specific Inhibitors of Cruzain (without detergent) | purified cruzain, Z-FR-AMC fluorescence, no detergent | 2.3% of 200,000 active | Cruzipain (Trypanosoma cruzi), P25779 | AID 1476, 2009 | Potency, µM, for the others: max response, negative = inhibition, most hits filed as inhibitors; active means well fitted curve in the direction sought with a large enough effect; inconclusive means small, poorly fitted or top-dose-only effect, or another doubt; inactive means no such curve, though single readings can be large; an effect the other way counts as inactive or inconclusive;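 further: plate controls were enzyme without inhibitor for no effect and buffer without enzyme for full effect; nearly all actives have a fitted effect of over 40% in size; top concentration of the series not given in the record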
Target sequence (P25779 123-467 limits assumed): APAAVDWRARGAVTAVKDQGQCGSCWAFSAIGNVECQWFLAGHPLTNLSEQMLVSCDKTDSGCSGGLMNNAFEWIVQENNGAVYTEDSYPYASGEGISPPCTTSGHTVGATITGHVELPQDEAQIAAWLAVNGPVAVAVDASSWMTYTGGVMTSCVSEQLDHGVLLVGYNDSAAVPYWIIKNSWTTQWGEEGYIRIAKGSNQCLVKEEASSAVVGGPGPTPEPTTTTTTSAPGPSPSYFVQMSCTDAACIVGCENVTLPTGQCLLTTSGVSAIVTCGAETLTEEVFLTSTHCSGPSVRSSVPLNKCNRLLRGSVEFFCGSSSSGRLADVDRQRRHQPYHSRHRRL
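Detergent-free condition (0.00005% Triton X-100) in acetate buffer pH 5.5 with DTT. 1.5 nM enzyme and compound were pre-mixed 15 min, then 2 uM Z-FR-AMC substrate added; reaction progress from fluorescence change between first and third reads (60 s).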
SARS PLP yeast = qHTS of Yeast-based Assay for SARS-CoV PLP; S. cerevisiae expressing SARS-CoV PLpro, growth rescue; control for the full effect not named in the record; Potency, µM (series often up to 32.9 µM), without a hit: at the top dose activity, positive = growth rescue; 0.19% of 330,000 active; AID 485353, 2010; further: 0% is about no effect; nearly all actives have a fitted effect of over 55% in size; growth read by luminescence after 48 h
Lassa entry inh = qHTS for Inhibitors of binding or entry into cells for Lassa Virus; Lassa virus pseudotype entry inhibition, cell reporter; control for the full effect not named in the record; Potency, µM (top dose mostly 37.9 µM), without a hit: at the highest dose activity change, negative = inhibition, hits mostly inhibitors; 1.2% of 300,000 active; AID 540256, 2011; active means well fitted inhibition curve with a large enough effect; inconclusive means small, poorly fitted or top-dose-only effect, or effect the other way; inactive means flat fitted curve, though single readings scatter; tested in HEK293 cells; further: on the % scale 0 is the no-effect control and ±100 the full control effect; nearly all actives have a fitted effect of over 50% in size; luciferase read-out
Cruzain inh Det = qHTS Assay for Promiscuous and Specific Inhibitors of Cruzain (with detergent). Cruzipain (Trypanosoma cruzi), P25779. purified cruzain, Z-FR-AMC fluorescence, 0.01% Triton. Potency, µM, inactives show max response, negative = inhibition, hits mostly inhibitors. 0.43% of 200,000 active. AID 1478, 2009; active means well fitted curve in the direction sought with a large enough effect; inconclusive means small, poorly fitted or top-dose-only effect, or another doubt; inactive means no such curve, though single readings can be large; an effect the other way counts as inactive or inconclusive;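 further: plate controls were neutral wells for no effect and buffer without enzyme for full effect; nearly all actives have a fitted effect of over 40% in size; top concentration of the series not given in the record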
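In this qHTS format, compounds are incubated with 1.5 nM cruzain for 15 min at room temperature before 2 uM Z-FR-AMC is added. Release of AMC is followed at 360/450 nm, and progress is taken as the 60 s fluorescence difference.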
MARV entry inh = qHTS for inhibitors of binding or entry into cells for Marburg Virus. Marburg virus pseudotyped entry inhibition, cell reporter; control for the full effect not named in the record; about a third of the inactives were read at about 46 µM. Potency, µM (doses to about 37.8 µM), without a hit: top-dose activity change, negative = inhibition, usual class: inhibitors. 1.8% of 300,000 active. AID 540276, 2011; active = well fitted inhibition curve with a large enough effect; inconclusive = small, poorly fitted or top-dose-only effect, or effect the other way; inactive = flat fitted curve, though single readings scatter; tested in HEK293 cells; about a fifth of its hits are not listed in these tables; further: on the % scale 0 is the no-effect control and ±100 the full control effect; luciferase read-out
StopGo reporter = High Throughput Screening for Foot and Mouth Disease Virus Antivirals; human cells with a luciferase reporter of 2A StopGo recoding; control for the full effect not named in the record; Potency, µM (top dose mostly 57.9 µM), inactives show at the top dose signal change, negative = less light; 1.2% of 410,000 active; AID 1159524, 2015; active = well fitted falling curve with a large enough effect; inconclusive = small, poorly fitted or top-dose-only effect; inactive = no such curve, though single readings can be large or run the other way; tested in HEK293T cells; further: on the % scale 0 is the no-effect control and ±100 the full control effect; nearly all actives have a fitted effect of over 45% in size; luciferase light after 4 h
An asterisk follows results filed as active; ? = inconclusive; . = no result given; & = joins results of further samples; [ ] = remark or other dose. Unless noted, the call rests on the fitted dose curve; in most records, active means well fitted rising curve with a large enough effect; inconclusive means small, poorly fitted or top-dose-only effect; inactive means no such curve, though single readings can be large or run the other way. Potency means the concentration at half of the fitted maximal effect.

Compound,RE007 growth inh,NS1 inh,Cruzain noTriton,SARS PLP yeast,Lassa entry inh,Cruzain inh Det,MARV entry inh,StopGo reporter
O=C(COC(=O)C1(c2cccc(F)c2)CCCC1)NCc1cccs1,9%,-2%,.,-4%,.,.,.,-19%
COc1ccc(/C=N/NC(=O)Cc2n[nH]c(=O)[nH]c2=O)cc1,6%,2%,.,2%,1%,.,-4%[46.1 µM],-21%
CC(=O)C(C)n1cnc2scc(-c3ccc(C)cc3)c2c1=O (stereo unspecified),10%,10%,.,-4%,.,.,.,-7%
CCOC(=O)CSC1=N/C(=C\c2ccc(OC)c(OC)c2)C(=O)N1C,10%,-18%,19%,11%,-24%,-8.7%,-3%,-14%
Cc1cc(CN2C(=O)c3ccccc3C2=O)cc(N2CCOCC2)c1,-7%,15%,5%,-6%,0%,-8.3%,-1%,.
C#CCOCCOCCOCCNc1nc(N2CCN(C(=O)C([C@@H](C)CC)n3cc(C(N)Cc4ccc(O)cc4)nn3)CC2)nc(N2CCN(C(=O)[C@H](CCC(=O)O)n3cc(C(N)CC(C)C)nn3)CC2)n1 (stereo partly specified),-17%,6%,.,0%,.,.,.,48%[activator]
COCCn1nnnc1C(c1ccccc1)N1CCN(Cc2ccc3c(c2)OCO3)CC1 (stereo unspecified),2%,4.5µM*,-4%,0%,13%,0.0%,-12%&-12%,-23%
O=C(N/N=C/c1ccc(O)c(Br)c1)c1cc2c(ccc3ccccc32)o1,-1%,7%,.,-3%,.,.,.,8%
Cc1ccc(C(=O)OC(C)C(=O)Nc2ccc(S(N)(=O)=O)cc2)cc1S(=O)(=O)N1CCOCC1 (stereo unspecified),2%,.,.,0%,-3%,.,14%,-4%
Cc1ccc(Cl)cc1NC(=O)Nc1cn(CC(C)C)c(=O)c2ccccc12,.,.,0%,.,-18%[46.1 µM],-12%,-5%[46.1 µM],-8%
O=C(Oc1ccc2ccc(=O)oc2c1)c1ccccc1,-15%,-2%,.,-5%,.,.,.,-2%
Cc1cc(C)c(OCC(=O)OCC(=O)NC2CCCCCCC2)c(C)c1,12%,-36%,.,-3%,.,.,.,-15%
CCc1ccc2[nH]c(O)c(N=NC3=NC(=O)CS3)c2c1,-9%,2%,.,1%,.,.,.,-4%
CCCCCN(C(=O)CCC(=O)OCCOc1ccccc1)c1c(N)n(CCCC)c(=O)[nH]c1=O,-15%,.,.,-3%,8%,.,-1%,-22%
CC1CC(NC2=NCCS2)CC(C)(C)C1 (stereo unspecified),?,-6%,.,-2%,-9%,.,?,-23%
Cc1cc(Cl)c2oc(C(=O)NCCN3CCOC3=O)c(C)c2c1,3%,-8%,.,2%,.,.,.,-5%
CC[N+](CC)(CC)C/C=C/CN1CCCCC1,-14%,-1%,2%,26%,3%,0.2%,-8%,-12%
CC1(C)NC(C)(C)/C(=C\c2cccs2)C(=O)C1=O,-22%,-8%,.,-3%,26%,.,13µM*,-15%
O=C(CSc1ncn[nH]1)NC1CC2CCC1C2 (stereo unspecified),9%,5%,5%,0%,-16%,-2.0%,4%,10%
CC(O)c1nc2ccccc2n1CC(=O)N1CCN(c2ccccc2)CC1 (stereo unspecified),-17%,.,.,0%,1%,.,?,3%
COC(=O)c1ccccc1NC(=O)CCn1c(=O)c2cccn2c2cccnc21,.,.,3%,.,1%[46.1 µM],-0.7%,.,0%
Cc1ccc(C(=O)N2C3=C(CCCC3)C(=O)NC23CCCCC3)cc1,-20%,.,.,3%,3%,.,?,1%
COC(=O)c1ccccc1NCC(=O)c1ccc(OC)cc1,7%,-18%,.,-61%,15%,.,8%[46.1 µM],10%
Cc1nn(Cc2ccccc2)c(C)c1C(=O)NCCN1C(=O)S/C(=C\c2ccccc2)C1=O,1%,-7%,17%,-15%,?,-2.4%,?,?
C=CCNC(=O)C1CCN(S(=O)(=O)CC)CC1,8%,-20%,-2%,1%,20%,1.8%,-1%,.
Cc1ccc(S(=O)(=O)Nc2nc(C)cc(NN)n2)cc1,3%,6%,.,-2%,12%[46.1 µM],.,6%[46.1 µM],0%
CCn1c(N2CCN(C(=O)c3ccco3)CC2)nc2ccccc21,-3%,-6%,.,1%,18%[46.1 µM],.,1%[46.1 µM],42%
COc1ccccc1Oc1ccc(S(=O)(=O)N2CCN(C)CC2)cc1,1%,.,.,-2%,.,.,5%[46.1 µM],-7%
COc1ccc(C(=O)Nc2ccc(S(=O)(=O)N3CCOCC3)cc2)cc1OC,18%,-11%,-4%,-9%,3%,-0.2%,-11%,-1%
O=C(CC1C(=O)NCCN1Cc1cccc(Oc2ccccc2)c1)NCCc1cnccn1 (stereo unspecified),2%,4%,.,0%,.,.,.,2%
O=C(NC1CC(=O)N(c2ccc(Cl)cc2)C1)C1CCCC1 (stereo unspecified),.,.,1%,.,-2%[46.1 µM],1.2%,.,-12%
CCOC(=O)c1c(NC(=O)CSc2nnc(-c3ccncc3)n2Cc2ccco2)sc(C)c1C,1%,4%,?,-1%,1%,-7.7%,?,?
COCCNC(=O)c1ccc2c(c1)N(Cc1cc(C)ccc1C)C(=O)c1ccccc1S2=O (stereo unspecified),.,.,?,.,-23%[46.1 µM],-1.2%,-16%[46.1 µM],-15%
N#Cc1cc2sc3nnc(-c4ccncc4)n3c2cc1C#N,-25%,-4%,-26%,-13%,-24%,-21%,?,0%
CC1(C)Oc2ccc3ccc(=O)oc3c2/C(=C/N)C1=O,4%,-37%,0%,-7%,8%,-1.0%,?,-22%
Nc1[nH]nc2c1NN(c1ccc(Cl)cc1Cl)N2,2%,17%,20µM*,-14%,3%,-17%,?,14%
Cc1nn(Cc2ccccc2Cl)c(C)c1NC(=O)CSc1n[nH]c(C)c1[N+](=O)[O-],.,4%,3%,-5%,?,-2.9%,-7%,.
CN(C)CCN=Cc1c(O)n(Cc2ccco2)c(=O)[nH]c1=O,2%,-2%,18%,-4%,2%,5.5%,?,-6%
COCCn1c(SCC(=O)Nc2ccc(C(C)=O)cc2)nc2c([nH]c3ccccc32)c1=O,2%,16%,.,3%,4%,.,-18%,41%[activator]
COC(=O)[C@H](Cc1ccccc1)NC(=O)NCc1ccc(S(N)(=O)=O)cc1,-21%,4%,-10%,5%,8%,1.7%,11%,0%
NNC(=O)CNC(c1ccccc1)c1cc(Br)ccc1NC(=O)c1cccc(Cl)c1 (stereo unspecified),-5%,11µM*,-17%,4%,-3%,-8.8%,?,-6%
Cc1oc(-c2cc3c(cc2Cl)OCO3)nc1CN1CCCC(C(=O)N2CCOCC2)C1 (stereo unspecified),17%,11%,.,3%,9%[46.1 µM],.,15%[46.1 µM],-24%
N/C(=N\OC(=O)COc1ccc([N+](=O)[O-])cc1)c1ccncc1,11%,.,.,-1%,15%,.,24%[46.1 µM],6%
O=[N+]([O-])c1ccc2nc(-c3ccc(Cl)cc3)n(OCc3ccccc3)c2c1,-13%,-79%,?,0%,14%,1.1%,?,50%[activator]
CC(=O)N(CC(=O)O)c1ccccc1C(=O)O,2%,-6%,-1%,-4%,3%,2.5%,-4%,-18%
Cc1c(OCC(=O)NC(Cc2ccc(Cl)cc2)C(=O)O)ccc2c3c(c(=O)oc12)CCCC3 (stereo unspecified),0%,5%,.,11%,.,.,.,-17%
CC(OC(=O)c1ncc(Cl)c(Cl)c1Cl)C(=O)NC1(C#N)CCCCC1 (stereo unspecified),-7%,.,.,-12%,19%,.,-10%[46.1 µM],-26%
CCc1ccccc1NC(=O)Cn1c(SCc2ccc(F)cc2)nc2ccncc21,.,.,-8%,.,16%[46.1 µM],-24%,-5%[46.1 µM],21%
O=C(NCc1ccccc1Cl)C1CCCN(S(=O)(=O)c2cccc3nsnc23)C1 (stereo unspecified),5%,?,-15%&-7%,-3%,-9%[46.1 µM],-6.3%&-5.0%,-6%[46.1 µM],-6%
CCCCCCc1cc2cc(-c3nnc(-c4ccccc4O)o3)c(=O)oc2cc1O,-16%,2%,-10%,-2%,-1%,-2.3%,19%&19%,?
CCc1ccc(OCCNC(=O)c2cccs2)cc1,-30%,-56%,-8%,-13%,14%,-3.4%,14%,11%
C/C=C/C(=O)OCC(=O)Nc1cc(-c2cc(C)c(C)cc2C)nn1-c1ccccc1,8%,-33%,8%,-47%,.,-13%,.,-17%
CC(C)(C)NC(=O)CSc1nc2scc(-c3ccccc3)c2c(=O)[nH]1,-14%,12%,-1%,-1%,4%,-4.4%,-4%,-18%
O=C1O/C(=C/c2ccccc2)N=C1c1ccccc1,-11%,0%,16µM*,22%,0%,13µM*,-1%,18%
C/C(=N\Nc1ncc(Cl)cc1Cl)c1ccc(S(=O)(=O)NCc2ccco2)cc1,5%,-1%,10%,-8%,4%,-9.4%,?,11%
CCc1nc(SCC(=O)c2ccc(C)c(C)c2)n[nH]1,14%,-19%,-3%,3%,-1%,-4.6%,8%,42%[activator]
CCn1cnc2sc(C(=O)Oc3cccc(C)c3)c(C)c2c1=O,4%,.,.,-9%,6%[46.1 µM],.,?,13%
COC(=O)c1ccc(/C=C/c2c(-c3ccc(OC)cc3)oc3ccccc23)cc1,0%,10%,.,-9%,.,.,.,-15%

Compound activity deposited in PubChem BioAssay by National Center for Advancing Translational Sciences (NCATS).

No enrichment for hits; 4.7% or so of the library scored in one or more.
